Rango complex inh = prevents formation of the Rango-importin beta complex; Rango CFP/YFP FRET sensor + importin beta, 45 min; Potency, µM (doses to about 92.2 µM), without a hit: at the top dose inhibition of complex formation; 0.031% of 340,000 active; active = rising FRET ratio curve, often small or poorly fitted; inconclusive = mostly compound fluorescence or quenching in the first reads; inactive = flat curves in all reads;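 further: potency means the concentration at half of the fitted maximal effect; 0% = DMSO wells and 100% = buffer wells lacking importin beta; nearly all actives have a fitted effect of over 15% in size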
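FRET biosensor (snurportin 1 IBB flanked by EYFP and cerulean), 50 nM, with compound 5 min, then 0.125 microM importin beta in PBS, 1 mM DTT, 0.02% Tween-20, 0.1% BSA. CFP/YFP ratio read after 45 min at room temperature; pre-read flags interference.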
miR-21 reporter = miR-21 reporter, rising signal; HeLa miR-21 FLuc reporter, luciferase, 48 h; Potency, µM (top dose mostly 38.3 µM), without a hit: at the top dose reporter change, positive = more light; 340,000 tested, under 10 active; AID 2288; active = well fitted rising curve with a large enough effect; inconclusive = small, poorly fitted or top-dose-only effect; inactive = no such curve, though single readings can be large or run the other way;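 further: % of control where 0% means no effect; miR-21 action dims this reporter so a rising signal means less miR-21 action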
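Luminescence from a firefly luciferase reporter carrying a miR-21 binding site downstream, stably expressed under a CMV promoter in HeLa cells that make miR-21 endogenously, reports miRNA modulation after 48 h compound exposure up to approximately 40uM final.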
GLA inh pH 4.5 = blocks human alpha-galactosidase A at pH 4.5. P06280. purified enzyme, 4-MU-alpha-Gal fluorescence, pH 4.5. activity change, negative = inhibition, % at 105 µM. 230,000 tested, under 10 active. AID 1467; inconclusive = small, poorly fitted or top-dose-only inhibition, or a rising curve; inactive = flat fitted curve, though single readings scatter; no compound was filed as active;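 further: 0% = full activity with enzyme and -100% = basal without enzyme; dose as in the result columns while the protocol names 77 µM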
Target sequence (P06280 whole entry, looked up): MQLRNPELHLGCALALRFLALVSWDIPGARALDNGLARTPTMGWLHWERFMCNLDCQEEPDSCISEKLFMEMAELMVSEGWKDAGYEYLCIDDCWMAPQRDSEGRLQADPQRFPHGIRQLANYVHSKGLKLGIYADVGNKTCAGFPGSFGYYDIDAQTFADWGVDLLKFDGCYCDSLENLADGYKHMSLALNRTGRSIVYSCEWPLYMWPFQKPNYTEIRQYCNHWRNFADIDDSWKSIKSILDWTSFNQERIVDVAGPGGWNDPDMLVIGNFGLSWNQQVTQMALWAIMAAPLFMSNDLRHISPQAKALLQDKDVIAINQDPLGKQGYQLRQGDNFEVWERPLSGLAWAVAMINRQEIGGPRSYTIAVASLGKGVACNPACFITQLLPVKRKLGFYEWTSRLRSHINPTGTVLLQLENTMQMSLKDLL
Rango dissoc inh = inhibition of RanGTP-driven Rango-importin beta dissociation. Biochemical FRET Rango-importin beta, RanGTP-induced dissociation. 0.071% of 340,000 active. O95149+P62826. AID 540253. Potency, µM (highest dose often 46.1 µM), inactives show at the highest dose activity change, negative = inhibition; active means falling FRET ratio curve, often poorly fitted, with flat reads before Ran was added; inconclusive means other falling curves, or compound fluorescence or quenching; inactive means flat or rising ratio curve;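 further: potency means the concentration at half of the fitted maximal effect; % of control where 0% means no effect; nearly all actives have a fitted effect of over 45% in size; -100% = wells without RanGTP and RCC1; the record marks most hits as doubtful in a second field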
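Two FRET readings bracket the reaction: one 5 min after compound meets Rango–importin beta, another 45 min after RanGTP-RCC1 (0.6 uM Ran, 0.2 uM RCC1, 2 mM GTP) is added. Only the second defines inhibition.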
The depositor's hits bear a star; ? = inconclusive; nt = not tested or not shown; & = joins results of further samples. An excerpt; the hit share may differ from the screen's.

SMILES | Rango complex inh | miR-21 reporter | GLA inh pH 4.5 | Rango dissoc inh
CC(=O)C1C(c2cn(-c3ccccc3)nc2-c2cccs2)NC(=O)NC1(O)C(F)(F)F (centres undefined) | -0.5% | -12% | 2 | 23%
C#CCNCCS(=O)(=O)N(Cc1ccc(Br)cc1)[C@@H](CC(C)C)C(=O)O | ? | nt | nt | 11%
Cc1cc(S(=O)(=O)N2CCN(C(=O)c3ccco3)CC2)ccc1F | 0.5% | -6% | nt | 1%
CC(=O)Nc1cccc(NC(=O)C(=O)c2cn(CC(=O)N3CCCCC3)c3ccccc23)c1 | 2.7% | -13% | 1 | 18%
COc1cc(NC(=O)c2ccccc2)c(OC)cc1NC(=O)Cc1ccc(F)cc1 | -1.5% | 6% | nt | -4%
CCNC(=O)NC(=O)CSc1ccc(S(=O)(=O)N2CCCCC2)cn1 | -0.9% | nt | nt | 2%
CCOCCCNC(=O)c1cc2c(=O)n3cccc(C)c3nc2n1C | -3.5% | 16% | 3 | -1%
Cc1ccc(C(=O)NCC(=O)N2CCN(c3ncccn3)CC2)s1 | 0.2% | -13% | 0 | -11%
COc1cccc(C2CN(c3ccc(F)cc3F)N=C2c2cccs2)c1OC (centres undefined) | ? | -4% | ? | ?
CCn1ccnc1CN(C)Cc1cn(C)nc1-c1ccccc1F | 0.3% | 3% | 2 | 3%
Cc1ccc2cc3cc(C(=O)NCCCN4CCc5ccccc5C4)oc3nc2c1 | 1.0% | 9% | -6 | 15%
O=C(c1ccco1)N1CCN(Cc2nnnn2CCc2ccccc2)CC1 | 0.8% | -9% | -7 | 2%
O=[N+]([O-])c1ccc(S(=O)(=O)N(CCCN2CCOCC2)Cc2cccs2)cc1 | -1.2% | 6% | -9 | 21%
COC(=O)c1ccc(NC(=O)CCN2CCN(CCC(=O)Nc3ccc(C(=O)OC)cc3)CC2)cc1 | 2.9% | -5% | -9 | -12%
CN(C)S(=O)(=O)c1ccc(NC(=O)c2ccc(Br)o2)cc1 | 0.0% | -18% | -8 | 6%
CC(C)Cc1cc(C(=O)NCCc2ccccc2)no1 | -1.7% | -65% | 0 | 6%
COC(=O)C1=C(C)NC(=O)NC1c1ccc(OCC(=O)N2CCCCC2)cc1 (centres undefined) | 2.4% | 0% | -6 | -20%
N#CC1=C(N)n2c(s/c(=C\c3ccco3)c2=O)=C(C#N)C1c1ccco1 (centres undefined) | ? | 5% | 7 | ?
Nc1[nH]c(=O)[nH]c(=O)c1N=Nc1ccccc1Cl | 0.1% | -16% | nt | -12%
Cc1cc(C)nc(NC(=O)c2cccc(Br)c2)n1 | -4.9% | -6% | nt | -9%

The final 2 records of the part above come first, to join the parts.
SMILES | Rango complex inh | miR-21 reporter | GLA inh pH 4.5 | Rango dissoc inh
Nc1[nH]c(=O)[nH]c(=O)c1N=Nc1ccccc1Cl | 0.1% | -16% | nt | -12%
Cc1cc(C)nc(NC(=O)c2cccc(Br)c2)n1 | -4.9% | -6% | nt | -9%
CCOC(=O)Cc1csc(SCC(=O)NC(C)C23CC4CC(CC(C4)C2)C3)n1 (centres undefined) | -0.7% | -2% | -12 | -4%
CC(C)N(Cc1nccn1C)C(=O)c1ccc2oc(Cc3ccccc3)nc2c1 | -3.0% | 0% | nt | -10%
Cc1nc(C(=O)N(C)C)nn1-c1cc(Cl)cc(Cl)c1 | 0.4% | -7% | 2 | -3%
CCOC(=O)c1cc2n(c1/N=C/N(C)C)-c1ccccc1C2=O | ? | -3% | -8 | ?
Cc1ccccc1N1CCN(CCCN2C(=O)C3CCCCN3C2=O)CC1 (centres undefined) | -3.2% | 0% | nt | -18%
CC(=O)Nc1cccc(C(=O)/C=C/c2ccc(C)cc2)c1 | 0.8% | ? | 0 | 4%
CC1CN(C(=O)c2cc3c(s2)CCC3)CC(C)O1 (centres undefined) | -3.1% | -4% | 5 | -16%
Cc1ccc(NC(=O)CSc2nc(N)cc(N)n2)cc1S(=O)(=O)N1CCOCC1 | -0.6% | 2% | -3 | -5%
CSCCC(NC(=O)c1ccccc1)C(=O)NNC(=O)c1ccccc1 (centres undefined) | -0.8% | nt | nt | -13%
CCCCn1c(N)c(N(CCC(C)C)C(=O)c2ccc(-c3ccc([N+](=O)[O-])cc3)o2)c(=O)[nH]c1=O | -0.1% | nt | nt | -1%
CC12CCC(=O)N1C(C(=O)Nc1nc3ccc(Cl)cc3s1)CS2 (centres undefined) | 1.6% | nt | nt | 16%
Cc1ccc(C(=O)c2cc([N+](=O)[O-])ccc2N2CCOCC2)cc1 | 3.2% | 0% | -3 | -29%
N#CC(NC(=O)OCc1ccccc1)c1ccccc1 (centres undefined) | 3.4% | nt | nt | -6%
O=C(N/N=C/c1cccnc1)c1ccc(F)cc1 | 1.6% | -23% | nt | -11%
CCC(C)N(C(=O)CN1C(=O)NC2(CCc3ccccc32)C1=O)C1CCS(=O)(=O)C1 (centres undefined) | -2.1% | nt | nt | -5%
COC(=O)C1=CN(C2CC2)C=C(C(=O)OC)C1c1ccc(C(F)(F)F)cc1 | ? | 0% | 4 | ?
O=C(O)C1CCC(c2ccc(-c3ccccc3)cc2)CC1 (centres undefined) | 11% | -41% | nt | -17%
Cc1cc(C)c(C)c(S(=O)(=O)N2CCN(C(=O)c3ccco3)CC2)c1C | -4.1% | nt | nt | -5%
CCCC/C=C/C(NC(=O)c1ccc(C(=O)OC)cc1)c1ccccc1 (centres undefined) | -0.4% | nt | -3 | -10%
COc1ccccc1CCC(=O)OCc1csc(CC(=O)Nc2ccccc2C)n1 | 2.2% | 1% | nt | -22%

Part of the list above in another layout:
Rango complex inh	miR-21 reporter	GLA inh pH 4.5	Rango dissoc inh	canonical_smiles
-0.7%	-2%	-12	-4%	CCOC(=O)Cc1csc(SCC(=O)NC(C)C23CC4CC(CC(C4)C2)C3)n1 (centres undefined)
-3.0%	0%	nt	-10%	CC(C)N(Cc1nccn1C)C(=O)c1ccc2oc(Cc3ccccc3)nc2c1
0.4%	-7%	2	-3%	Cc1nc(C(=O)N(C)C)nn1-c1cc(Cl)cc(Cl)c1
?	-3%	-8	?	CCOC(=O)c1cc2n(c1/N=C/N(C)C)-c1ccccc1C2=O
-3.2%	0%	nt	-18%	Cc1ccccc1N1CCN(CCCN2C(=O)C3CCCCN3C2=O)CC1 (centres undefined)
0.8%	?	0	4%	CC(=O)Nc1cccc(C(=O)/C=C/c2ccc(C)cc2)c1
-3.1%	-4%	5	-16%	CC1CN(C(=O)c2cc3c(s2)CCC3)CC(C)O1 (centres undefined)
-0.6%	2%	-3	-5%	Cc1ccc(NC(=O)CSc2nc(N)cc(N)n2)cc1S(=O)(=O)N1CCOCC1
-0.8%	nt	nt	-13%	CSCCC(NC(=O)c1ccccc1)C(=O)NNC(=O)c1ccccc1 (centres undefined)
-0.1%	nt	nt	-1%	CCCCn1c(N)c(N(CCC(C)C)C(=O)c2ccc(-c3ccc([N+](=O)[O-])cc3)o2)c(=O)[nH]c1=O
1.6%	nt	nt	16%	CC12CCC(=O)N1C(C(=O)Nc1nc3ccc(Cl)cc3s1)CS2 (centres undefined)
3.2%	0%	-3	-29%	Cc1ccc(C(=O)c2cc([N+](=O)[O-])ccc2N2CCOCC2)cc1
3.4%	nt	nt	-6%	N#CC(NC(=O)OCc1ccccc1)c1ccccc1 (centres undefined)

(cont.)
SMILES | Rango complex inh | miR-21 reporter | GLA inh pH 4.5 | Rango dissoc inh
CCN(CC)S(=O)(=O)c1ccc(NC(=O)C2CCCO2)cc1 (centres undefined) | 0.1% | 2% | -4 | 2%
CC(=O)N1C(C)(C)CC(=NOS(=O)(=O)c2ccccc2)CC1(C)C | 0.2% | 2% | 6 | 1%
Cc1cc(C)nc(N2CCCC(C(=O)NC3CC3)C2)n1 (centres undefined) | 0.8% | -1% | nt | 11%
COc1nnc(-c2ccc(C)c(S(=O)(=O)NC(C)(C)CO)c2)c2ccccc12 | -1.1% | -3% | nt | -1%
Cc1nc(-c2ccccc2)sc1-c1nc(-c2ccncc2)ncc1S(=O)(=O)c1ccccc1 | 4.2% | 0% | 4 | -6%
CCC(=O)Nc1ccc(S(=O)(=O)N2CCC(c3nc4ccccc4[nH]3)CC2)cc1 | ? | nt | nt | -10%
CCCn1nnc(NC(=O)COc2ccc(CC)cc2)n1 | 3.3% | -6% | 3 | 2%
COc1ccc(CC(=O)N2N=C(C)CC2(O)C(F)(F)F)cc1OC (centres undefined) | 0.0% | 5% | -4 | 1%
O=C(C1CCCN1S(=O)(=O)c1cccc2nsnc12)N1CCN(c2ccc(F)cc2)CC1 (centres undefined) | 0.0% | -1% | nt | -5%
CC(COc1ccc(/C=C/c2ccccc2)cc1)[N+](C)(C)C (centres undefined) | -1.6% | nt | 4 | 18%
Cn1cc(S(=O)(=O)N2CCc3ccccc32)cc1C(=O)Nc1ccc(Cl)cc1 | -1.1% | 13% | nt | 1%
CCOC(=O)c1c(NC(=O)c2ccccc2)sc2c(O)c(CN(CC)CC)ccc12 | -0.6% | -4% | -9 | 6%
Cc1ccc(C(=O)N/C(=C\c2cccc([N+](=O)[O-])c2)C(=O)NC(Cc2ccccc2)C(=O)O)cc1 (centres undefined) | 0.6% | -3% | nt | 2%
N#Cc1c(NC(=O)C2CC=CCC2C(=O)O)sc2c1CCCCCC2 (centres undefined) | 1.0% | 1% | 4 | 6%
COc1ccc(C(=O)Nc2cccc(/C(C)=N/NC(=O)c3ccc([N+](=O)[O-])cc3)c2)cc1OC | 1.4% | -14% | 8 | -12%
CC(C)CC(NC(=O)C1CCCCC1)C(=O)NCc1ccccn1 (centres undefined) | -1.6% | -3% | -3 | -16%
Cn1nc(C(=O)NCc2ccc(F)cc2)c2ccccc2c1=O | 4.0% | -2% | -2 | -1%
Cn1cc(/C=C(\NC(=O)c2ccccc2Cl)C(=O)NCCN2CCOCC2)c2ccccc21 | -0.5% | 4% | nt | 5%
O=C(C[C@@H]1C/C=C\C[C@H](Cc2ccc(F)cc2)C(=O)OC[C@@H](Cc2c[nH]c3ccccc23)NC1=O)NCCO | -2.2% | nt | nt | 11%
CCc1nc2ccccc2nc1N1CCN(S(=O)(=O)c2c(C)cc(Cl)cc2C)CC1 | 0.3% | -4% | 1 | -4%
COc1ccc(-c2nnn(CC(=O)N(CCN3CCOCC3)C(C(=O)NC3CCCCC3)c3ccco3)n2)cc1 (centres undefined) | ? | -4% | -9 | 29%
CS(=O)(=O)c1ccccc1C(=O)Nc1ccccc1Cc1ccccc1 | 9.1% | 5% | nt | -7%
COC(=O)c1c(C)[nH]c(C(=O)COC(=O)Cn2cc(C(F)(F)F)ccc2=O)c1C | 4.0% | nt | nt | 1%
COc1cccc(OC)c1C(=O)Nc1nc(COc2ccccc2)cs1 | -1.7% | -12% | 4 | -4%
CN1OC[C@@H]2CN[C@H](c3cccc(-c4ccccc4)c3)C[C@@H]21 | -4.4% | nt | nt | -11%
CCCCN(c1ccc(C(=O)OC)cc1)S(=O)(=O)c1ccccc1 | -4.5% | -1% | 2 | 0%
CC(C)(C)OC(=O)NCCCC(CCCNC(=O)OC(C)(C)C)C(=O)O | -4.3% | -2% | 5 | -3%
Nc1nonc1N/N=C\c1ccccc1 | -2.7% | -13% | 3 | 16%
COc1ccc(C(=O)NNC(=O)CSc2nnc3ccccn23)cc1OC | 0.1% | nt | nt | 1%
O=C(CSc1nc(Cc2ccccc2)nc2ccccc12)Nc1nc2c(s1)CCCC2 | 5.3% | -8% | -2 | -3%
S=C(NCc1ccccc1)N/N=C/c1cccs1 | 1.2% | -5% | nt | ?
CCCCn1c(N)c(N(CC(C)C)C(=O)Cc2ccc3c(c2)OCCO3)c(=O)[nH]c1=O | -1.1% | nt | nt | -4%
CCOC(=O)c1nc(Nc2ccc(Nc3ccccc3)cc2)c2ccccc2n1 | -2.6% | 25% | 0 | -17%
COc1ccc(NC(=O)CSc2nc3ccccc3nc2N2CCOCC2)c(OC)c1 | -1.4% | -7%&-18% | nt | 12%
CCC(CC)C(=O)Nc1ccc(Cl)c(Cl)c1 | 1.1% | 6% | 4 | 28%
CN(C)c1ccc(/C=C/C=N/Nc2nc(N3CCOCC3)nc(N3CCOCC3)n2)cc1 | ? | -2% | 1 | ?
CCOC(=O)C1=C(C)NC(SCC(=O)O)=C(C#N)C1c1ccco1 (centres undefined) | -1.2% | -2% | 3 | -1%

Screens: PubChem, National Center for Advancing Translational Sciences (NCATS)
